VACV E9 pol inh: blocks vaccinia virus processive DNA synthesis. in vitro processive DNA synthesis, absorbance read-out; hits give low values; some inactives read as strong as hits. normalized absorbance, % (no concentration beside the values). hit rate 0.94% among 46,000;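 active = replicate mean up to 90% and picked by the depositor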;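 note: 100% = median of the test wells of a plate; 100 nL library stock went into each well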
* = called active by the depositor. Only part of the results is shown, so the mix of outcomes need not match the whole.

Molecule,VACV E9 pol inh
O=C(Nc1nccs1)c1cc(-c2ccccc2)nc2ccccc12,100.2
Cc1ccc(/C=C/C(O)=C2/C(=O)N(C)C3(C)CC2c2ccccc2O3)cc1 (stereo not given),98.9
Cc1ccc(Nc2ccc(C)cc2)cc1,99.7
O=C(/C=C/c1cccs1)N(c1ccccc1)c1ccccn1,104.1
CCOC(=O)c1nnc(-c2ccccc2)o1,103.3
CS(=O)(=NS(=O)(=O)c1ccc(-c2ccccn2)s1)c1ccc(Cl)cc1 (stereo not given),108.0
COC(=O)c1cccnc1-n1c(=O)c2cccnc2n(Cc2ccccc2F)c1=O,101.2
O=C(NCc1ccccc1)/C(=C\c1ccccc1)NC(=O)c1ccccc1,100.7
CC1Sc2ccc(Cl)cc2C(=O)/C1=C/N(C)C (stereo not given),98.5
CCc1nnc(SCC(=O)O)n1N,99.9
Cc1ccc(Nc2nc(C(=O)N(C)Cc3ccccc3)cs2)cc1,98.3
O=C(CCN1C(=O)/C(=C/c2ccc(Cl)cc2)SC1=S)Nc1ccccc1,99.8
CCSc1nc2ccccc2n1CC(N)=O,100.5
Cn1c(=O)sn(-c2ccccc2)c1=O,90.7
CSc1ccc(C=Nc2ccc(Nc3ccccc3)cc2)cc1,99.3
O=C(O)CSCC(=O)N(c1ccccc1)c1ccccc1,86.3
COc1ccc(C2CC(=O)c3cnc(N)nc3C2)cc1OC (stereo not given),99.9
CC1=C(C(=O)Nc2ccccc2)C(c2ccc(F)cc2)n2ncnc2N1 (stereo not given),93.2
O=C(NCc1ccc(Cl)cc1)c1sc2ccccc2c1Cl,100.1
Cn1c(CSCc2ccccc2)c(C#N)c2ccccc21,100.0
O=C(Nc1ccc(C(F)(F)F)cc1Cl)c1ccc(Cn2cc(Br)cn2)o1,99.9
Cc1cc(C)c(S(=O)(=O)Nc2cc3c4c(oc3c3ccccc23)CCCC4=O)cc1C,99.9
O=C1N[C@H](C(=O)O)C1Cc1ccccc1 (stereo not given in full),98.6
COC(=O)c1c[nH]n2c(=O)c3c(nc12)CCC3,107.3
NC(=O)C1CCN(C(=O)c2ccc(F)cc2F)CC1,100.7
Cn1c2ccccc2c2c3c(c4c5ccccc5n(CCC#N)c4c21)CNC3=O,98.0
CCSC1=C(C#N)C(=O)NCS1,105.4
COC(=O)c1sc(C(C)(C)C)cc1NC(=O)Nc1ccc(Cl)cc1,94.3
CCOC(=O)c1[nH]c(=O)[nH]c1COC(=O)CNC(=O)c1ccccc1,101.0
COc1ccc(CNC(=O)Cn2c3ccccc3c3nc(=O)cc(C)n32)cc1,79.9
CCC1CCCCN1C(=O)Cn1c(SCc2cccc(Cl)c2)nc2ccncc21 (stereo not given),107.3
CC(=O)Nc1ccc(OCC(O)CN2CCCC2)cc1 (stereo not given),113.9
COc1cc2ccccc2cc1C(=O)NC(C)Cc1ccccc1 (stereo not given),100.4
CCOC(=O)c1sc(NC(=O)C2CC2)nc1-c1ccccc1,99.6
COc1ccc(Cn2c(SCc3cccc(C(F)(F)F)c3)nc3ncccc3c2=O)cc1,95.3
CCCC[C@@H](C=O)NC(=O)[C@H](CC(C)C)NC(=O)OCc1ccccc1,97.7
Cc1ccc2c(c1)CCCN2C(=O)c1cc(C(F)(F)F)cc(C(F)(F)F)c1,96.0
N#Cc1cccc2cccc(Sc3ccccc3)c12,100.0
Cc1cc(=O)oc2c1ccc1oc(/C(=N/O)c3ccccc3)c(C)c12,100.0
CN(C)c1ccc(C(=O)OCC(=O)c2cccs2)cc1,97.9
CC(C)(C)c1ccc(C(=O)NCCCn2ccnc2)cc1,98.9
Cc1ccccc1NC(=O)Cc1ccccc1,99.9
S=c1oc(-c2ccccc2)nn1CNc1ccccc1Br,100.4
Cc1c(C(=O)NC2CCCC2)oc2ccc(S(=O)(=O)N(C)C3CCCCC3)cc12,104.4
CN(C)CC(C)(O)c1ccc(Cl)cc1 (stereo not given),101.5
Cc1c(C(=O)Oc2ccc(Cl)cc2)n(C)oc1=O,99.3
FC(F)(F)C1=CC(c2ccccc2)=NCCN1,100.2
CCOc1ccc(CCNC(=O)C2c3ccccc3C(=O)N3CCc4ccccc4C23)cc1OCC (stereo not given),100.7
Cc1ccc(-c2nc3sc4nc5ccccc5nc4n3n2)cc1,97.9
COc1ccc(Cl)cc1CN1CCCCC1,104.8
O=C(N1CCN(c2ccccc2)CC1)C1(S(=O)(=O)c2ccccc2)CC1,87.2
COc1cccc(OCCCN2CCNCC2)c1,100.0
COc1cccc(OC)c1C(=O)NN,96.3
OC[C@H]1O[C@@H](OCc2ccccc2)[C@H](O)[C@@H](O)[C@@H]1O,100.8
CCC(CC)C(=O)NCc1ccc2c(c1)cc(C)n2C,100.8
N#CCSc1ccc(Br)cc1,89.3
Cc1nc2ccccc2c(=O)n1/N=C/c1ccsc1,100.1
NC(=O)c1cnn(-c2ccc(C(F)(F)F)cn2)c1N,96.6
CCC(C)c1ccccc1OCC(O)CNC(C)C (stereo not given),95.0
Oc1ccc(CN2CCN(c3ccccc3)CC2)c2cccnc12,96.1

Going on with the list:
Molecule,VACV E9 pol inh
COc1ccc(NC(=O)CSc2nccn2-c2ccc(F)cc2)c(OC)c1,100.4
CC1=CC(C)C2C(=O)N(c3ccc[n+](C)c3)C(=O)C2C1 (stereo not given),99.1
O/N=C/c1ccc(N2CCOCC2)cc1,100.5
O=C(Cc1cccs1)Nc1nc2ccccc2s1,90.3
Clc1ccc(OCc2ccccc2)c(Cl)c1,97.9
O=C(CC(=O)N1CCc2ccccc21)N1CCc2ccccc21,94.9
COc1ccc(NC(=O)C(c2ccc(C)cc2)N(C)C(=O)c2ccc(=O)[nH]c2)cc1 (stereo not given),98.6
Cc1ccc(-n2c(C)csc2=NC(=O)c2ccccc2)cc1,98.7
COc1ccc(NC(=O)c2sc3nc4n(c(=O)c3c2C)CCCCC4)cc1,101.5
CC(=O)N1CN(CCCn2ccnc2)Cc2c1sc1c2CCCC1,95.0
Cc1nc2sccn2c(=O)c1S(=O)(=O)Nc1ccc2c(c1)OCCO2,108.0
Cc1ccc2oc(=O)n(S(C)(=O)=O)c2c1,115.1
CC(=C/C(=O)O)/C=C/c1ccccc1,100.9
CC1(C)CC(CCN)(Cc2ccccc2)CCO1 (stereo not given),100.4
CC(C)CNC(=O)CSc1nc(-c2ccc(F)cc2)cc(C(F)(F)F)n1,98.9
Cc1ccc(-c2nnc(NC(=O)C3CCCCC3)s2)cc1,102.0
CC1CCCN(c2ccc3nc4ccccc4c(=O)n3n2)C1 (stereo not given),94.6
N#CCCN(Cc1cccnc1)C(=S)NC1CC2C=CC1C2 (stereo not given),100.4
COc1cc2c(cc1NC(=O)c1ccccc1)oc1ccccc12,100.4
COCn1c(-c2ccccc2)nc2ccccc21,100.2
COc1ccc(OC)c(-n2cc(-c3ccccc3)nc2SC)c1,98.7
COc1ccc(S(=O)(=O)N(CCO)C2CCCCC2)cc1,98.3
COCCN1C(=O)c2oc3cc(C)c(C)cc3c(=O)c2C1c1ccccc1F (stereo not given),96.3
N#Cc1ccccc1NC(=O)Nc1cccs1,100.5
CCc1cccc(C)c1NC(=O)Nc1ccc(N2CCCCC2)cc1,109.9
Cc1cccc(CC(=O)NCc2ccc3[nH]c4c(c3c2)CCCC4)c1,102.0
COc1cc(C(=O)NC(Cc2ccccc2)c2nc3ccccc3[nH]2)cc(OC)c1OC (stereo not given),88.6
C/C(C=Nc1c(C)n(C)n(-c2ccccc2)c1=O)=C/c1ccccc1,100.3
COc1ccc(C(N)CC(=O)O)cc1 (stereo not given),93.8
Cc1ccc(/C=C2\SC(=O)NC2=O)o1,83.0

Part of the list above in a different format.
CCc1cccc(C)c1NC(=O)Nc1ccc(N2CCCCC2)cc1
  VACV E9 pol inh: 109.9
Cc1cccc(CC(=O)NCc2ccc3[nH]c4c(c3c2)CCCC4)c1
  VACV E9 pol inh: 102.0
CC1CCCN(c2ccc3nc4ccccc4c(=O)n3n2)C1 (stereo not given)
  VACV E9 pol inh: 94.6

(further entries)
Molecule,VACV E9 pol inh
O=S(=O)(NCC(Nc1ccccc1)c1ccccc1)c1ccccc1 (stereo not given),84.6
CN(CCO)C(=O)c1ccc(-c2nn(C)c(=O)c3ccccc23)cc1,107.7
COc1ccc(CN=C(Nc2ccccc2)SC2CC(=O)N(C)C2=O)cc1 (stereo not given),101.4
S=c1[nH]nc(CN2CCOCC2)n1-c1ccccc1,102.7
COc1ccc(OCC(O)CN2CCN(C)CC2)cc1 (stereo not given),97.8
O=C(NCC(c1ccc(F)cc1)N1CCOCC1)c1ccc(Br)o1 (stereo not given),96.0
N#CC1=C(N)OC2=C(C(=O)CCC2)C1C1CCCCC1 (stereo not given),94.5
O=C(c1ccco1)N(Cc1nc(-c2ccccc2)no1)C1CCCCC1,102.5
CNS(=O)(=O)c1ccc2c(c1)oc(=O)c1cc(S(=O)(=O)NC)ccc12,99.8
Cc1cc(C)c2[nH]c(=O)cc(C(=O)O)c2c1,99.8
CCOC(=O)N1CCc2c(sc(N)c2C#N)C1,93.8
CCCCn1c(CCNC(=O)c2cccs2)nc2ccccc21,97.3
CC1=C(C(=O)NN)Sc2ccccc2N1,101.5
O=C1OC(c2ccccc2)C(O)(c2ccccc2)C12CCCCC2 (stereo not given),102.9
CCN(Cc1ccccc1)C(=O)CSc1nc(C)c(Cl)c(C)c1C#N,99.0
O=C(Nc1cccc(Cl)c1)NC1CCN(C2CCCCC2)C1 (stereo not given),100.7
O=c1cc(CO)oc(CN2CCCCC2)c1O,100.2
O=C(N=CNC(=O)c1cccnc1)c1cccnc1,97.2
Cc1cc(C)c2oc(-c3ccc(N)cc3O)nc2c1,99.9
COc1ccc(CN2C(=O)C(F)(F)C2c2cccc(Cl)c2)cc1 (stereo not given),93.5
ClCc1cc(-c2ccccc2)on1,124.1
c1ccc(C2Oc3ccccc3C3Oc4ccccc4CC23)cc1 (stereo not given),100.9
CCC(=O)Nc1cc(C(=O)O)ccc1Sc1ccc(OC)cc1,95.5
C=CCNC(=O)c1ccc2c(c1)N(Cc1cccc(Cl)c1)C(=O)c1ccccc1S2,98.7
COc1ccccc1N1C(=O)CCC1(C#N)c1ccc(OCc2ccccc2)cc1 (stereo not given),100.0
c1ccc2c(c1)nc(SC1CCCCC1)c1nncn12,77.8
CC(C)(C)c1csc(NC(=O)c2ccc(F)cc2)n1,99.7
N#CCc1cc(Cl)cc2c1OCOC2,99.8
COc1ccc(S(=O)(=O)NCCC(=O)NC2CCCCC2)cc1,103.2
COc1ccc(S(=O)(=O)n2ccc(C3CC3)n2)cc1,107.6
Cc1cc(/C=C2/SC(=O)N(c3ccccc3)C2=O)c(C)n1-c1cccnc1,100.4
CNS(=O)(=O)c1ccc(Br)cc1I,98.8
COc1cccc(NC(=O)c2oc3ccc(S(=O)(=O)N4CC(C)CC(C)C4)cc3c2C)c1 (stereo not given),95.4
Cc1c(O)c(CN2CCC(C)CC2)cc2c(-c3ccccc3)cc(=O)oc12,100.4
CCn1c(C(=O)NC2CC2)cc2sc(Cl)cc21,99.7
COc1ccc(CCNC(=O)c2cc3sc(C)cc3n2C)cc1OC,104.7
Cc1cc(C)nc(SCc2cc(-c3nn(C)c(=O)c4ccccc34)ccc2C)n1,99.9
CCn1c2ccccc2c2nnc(NCCN3CCN(c4cc(Cl)ccc4C)CC3)nc21,102.5
COc1cccc(CN(C(=O)/C=C/c2ccccc2)C2CCS(=O)(=O)C2)c1 (stereo not given),103.5
CCC(CC)C(=O)Nc1c(-c2ccccc2)nc2cc(C)ccn12,97.6
CN(C)C(=O)N1CCC(C(=O)NCCC2=CCCCC2)CC1,89.0
C=CCN1C(=O)NC(=O)/C(=C\c2ccc(O)c(O)c2)C1=O,100.1
Cc1ccc(C)c(NC(=O)C2CCCN(C(=O)c3cnn(-c4ccccc4)c3-n3cccc3)C2)c1 (stereo not given),98.9
O=S(=O)(c1ccccc1)c1nc(Cc2ccccc2)oc1N1CCOCC1,99.3
COC(=O)Cn1cnc2sc(C)c(S(=O)(=O)N3CC(C)CC(C)C3)c2c1=O (stereo not given),92.7
CCOC(=O)C1C(=O)CC(C)(O)C(C(=O)OCC)C1/C=C/c1ccccc1 (stereo not given),103.6
O=S(=O)(Nc1ccccc1F)c1ccc2[nH]c3c(c2c1)CCCC3,94.7
Cc1cc(/C=C/c2ccc(OCC(O)CNC(C)C)cc2)on1 (stereo not given),99.9
Cc1ccc(S(=O)(=O)NCCNc2nccc(C(F)(F)F)n2)cc1,100.3
CC1CCN(S(=O)(=O)c2ccc3c(c2)c(=O)c(C(=O)N(C)Cc2ccccc2)cn3C)CC1,103.1
CS(=O)(=O)Nc1cc(NS(C)(=O)=O)cc(C(=O)O)c1,99.9
COC(=O)CCC(=O)Nc1nccs1,99.7
Cc1ccc(Cn2c(C(=O)O)c(CNC3CC3)c3ccccc32)cc1,94.1
O=S(=O)(c1ccc(C(F)(F)F)cc1)N1CCCN(c2ccc(C(F)(F)F)cn2)CC1,117.5

2 consecutive compounds from above, for reference:
Molecule,VACV E9 pol inh
Cc1cc(/C=C2/SC(=O)N(c3ccccc3)C2=O)c(C)n1-c1cccnc1,100.4
CNS(=O)(=O)c1ccc(Br)cc1I,98.8

Assay outcomes (PubChem BioAssay)
